YB-1 expression = YB-1 expression inhibition; delta delta Cp (YB-1 minus CDIP) (no concentration beside the values); hit rate 0.37% among 30,000; U2OS, qRT-PCR YB-1 vs CDIP delta delta Cp, 16 h; hits give high values; zero = DMSO, each unit about twofold;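 active means delta delta Cp rounded down to an integer at or above 3, about 3 SD of DMSO wells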;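 further: higher means less YB-1 transcript or more CDIP transcript relative to DMSO; stock transfer was 100 nL into about 100 µL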
PD-1 reversal = activators reversing PD-1 mediated T-cell inhibition; activation, % (concentration not given with the values); primary human CD4 T cells, PD-L1 beads, CellTiter-Glo 96 h; 29,000 tested, under 10 active;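 active means replicate mean of 50% or more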;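 further: 0% = median vehicle wells and 100% = positive control; 100 nL library stock added to about 50 µL; numbers are from one replicate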
MITF inh = MITF inhibition | TRPM1 promoter luciferase, luminescence, 24 h | inhibition, % (test concentration not listed) | hit rate 0.28% among 37,000 | AID 2240;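 active means most replicates at 85% or more, or half of them and the mean; inconclusive means half reach 85% but not the mean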;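 further: human melanocyte line stably carrying TRPM1 promoter luciferase reporter; 0% = vehicle wells and 100% = a positive control; the first replicate is given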
Shh pathway inh = Sonic Hedgehog pathway inhibition; hit rate 2.1% among 22,000; inhibition, % (test concentration not listed); Shh-LIGHT2 Gli-luciferase reporter, 30 h;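 active means replicate mean of 65% or more; inconclusive means mean lower but half the replicates past it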;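 further: pathway switched on by Shh-conditioned medium diluted 1 in 25 in low serum; 100 nL library stock added to about 40 µL; 0% = median of neutral wells and 100% = positive control level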
* marks the source's active call; other numbers are inactive results; ? = inconclusive; · = not tested or not shown. Some of the compounds tested; count on the stated rates, not on these rows.

Results follow in this order: YB-1 expression	PD-1 reversal	MITF inh	Shh pathway inh
1: COc1ccc(S(=O)(=O)Nc2ccc3c(c2)CC(=O)N([C@@H](C)CO)C[C@H](C)[C@H](CN(C)C(=O)Nc2ccc4c(c2)OCO4)O3)cc1
  -0.155	0.0	0.6	·
2: C[C@@H]1CN([C@@H](C)CO)C(=O)c2cc(NC(=O)Cc3cn(C)c4ccccc34)ccc2O[C@@H]1CN(C)Cc1ccc(Oc2ccccc2)cc1
  0.0757	·	38.3	·
3: Cc1cc(C(=O)Nc2cccc3c2O[C@H](CN(C)C(=O)Nc2ccccc2)[C@@H](C)CN([C@H](C)CO)C3=O)n(C)n1
  -0.333	2.0	3.4	-5.2
4: C[C@@H]1CN([C@H](C)CO)C(=O)Cc2cc(NC(=O)NC3CCCCC3)ccc2O[C@@H]1CN(C)C
  0.0295	0.8	4.9	-30.8
5: CC1CNCCN1S(=O)(=O)c1cccc2cnccc12 (stereo not drawn)
  0.0282	-1.3	19.9	-12.2
6: N#Cc1ccccc1CSc1nnc(Cc2cccc3ccccc23)n1-c1ccccc1
  ·	-2.3	31.4	·
7: Cc1noc(C)c1NC(=O)N(C)C[C@@H]1Oc2c(NS(=O)(=O)c3c(C)noc3C)cccc2C(=O)N([C@@H](C)CO)C[C@@H]1C
  0.299	0.5	-4.3	-6.3
8: C[C@H](CO)N1C[C@H](C)[C@@H](CN(C)S(=O)(=O)c2ccc(F)cc2)Oc2c(NS(C)(=O)=O)cccc2C1=O
  0.0172	1.6	-1.8	-83.7
9: C[C@H](CO)N1C[C@H](C)[C@H](CN(C)S(=O)(=O)c2ccc(Cl)cc2)Oc2ccc(NC(=O)C3CCCCC3)cc2CC1=O
  0.133	·	4.8	10.2
10: Cc1cc(C(=O)Nc2cccc3c2O[C@H](CN(C)S(=O)(=O)c2cccs2)[C@H](C)CN([C@H](C)CO)C3=O)n(C)n1
  -0.289	·	-3.4	-20.9
11: COc1ccc(NC(=O)Nc2cccc3c2O[C@H](CN(C)S(C)(=O)=O)[C@@H](C)CN([C@@H](C)CO)C3=O)cc1
  0.455	1.2	-30.3	11.1
12: COc1ccc(S(=O)(=O)Nc2ccc3c(c2)C(=O)N([C@H](C)CO)C[C@@H](C)[C@H](CN(C)S(=O)(=O)c2ccc(OC)cc2)O3)cc1
  -0.168	0.5	4.2	·
13: C[C@@H]1CN([C@@H](C)CO)C(=O)c2cc(NC(=O)c3ccncc3)ccc2O[C@@H]1CN(C)Cc1ccc(C(F)(F)F)cc1
  -0.0849	1.2	-5.2	4.4
14: C[C@H](CO)N1C[C@H](C)[C@@H](CN(C)S(=O)(=O)c2ccc(Cl)cc2)Oc2ccc(NS(=O)(=O)c3ccc(F)cc3)cc2C1=O
  0.562	-2.0	-19.4	8.9
15: CN(C)CCCNc1ncnc2c1sc1nc(N3CCOCC3)c3c(c12)CCC3
  ·	-1.9	-28.8	·
16: O=C1/C(=C/c2c[nH]c3ccccc23)CSc2ccccc21
  0.255	0.7	-8.1	·
17: C[C@@H]1CN([C@@H](C)CO)C(=O)Cc2cc(NC(=O)Nc3ccc(C(F)(F)F)cc3)ccc2O[C@@H]1CN(C)C(=O)Nc1cccc2ccccc12
  0.138	-1.5	39.6	15.4
18: CC(=O)N[C@H]1[C@H](O[C@H]2CC[C@@]3(C)C(CC[C@]4(C)C3CC=C3[C@@H]5CC(C)(C)CC[C@]5(C(=O)O)CC[C@]34C)C2(C)C)O[C@H](CO[C@@H]2OC[C@H](O)[C@H](O)[C@H]2O[C@@H]2OC[C@H](O)[C@H](O)[C@H]2O)[C@@H](O)[C@@H]1O (stereo partly drawn)
  -1.29	-13.3	19.3	108.6*
19: C[C@H](CO)N1C[C@H](C)[C@H](CN(C)Cc2ccc(C(=O)O)cc2)Oc2ccc(NC(=O)C3CC3)cc2CC1=O
  -0.132	3.6	-16.7	-3.2
20: CC(C)NC(=O)Nc1ccc2c(c1)CC(=O)N([C@H](C)CO)C[C@H](C)[C@H](CN(C)C(=O)Nc1ccc(C(F)(F)F)cc1)O2
  -0.12	-0.6	-0.9	-8.5
21: CC(C)NC(=O)Nc1cccc2c1O[C@H](CN(C)Cc1ccc(C(=O)Nc3ccccc3N)cc1)[C@H](C)CN([C@@H](C)CO)C2=O
  -0.00813	-2.6	17.1	·
22: Cc1ccc(S(=O)(=O)Nc2ccccc2/C(O)=C(/C#N)c2nc3ccccc3n2C)cc1
  0.049	-1.6	-20.8	0.6
23: NC(=O)c1ccccc1NC(=O)COc1ccc2oc3c(c2c1)CCCC3
  ·	-0.4	-74.6	·
24: Cc1ccc(NC(=O)CSc2nc3sc4c(c3c(=O)[nH]2)CCCC4)cc1[N+](=O)[O-]
  ·	-0.2	-3.2	·
25: C[C@@H]1CN([C@H](C)CO)C(=O)c2cc(NS(=O)(=O)c3ccc(Cl)cc3)ccc2O[C@@H]1CN(C)S(=O)(=O)c1ccc(Cl)cc1
  -0.593	1.8	9.9	·
26: COc1ccc(S(=O)(=O)Nc2cccc3c2O[C@@H](CN(C)S(=O)(=O)c2c(C)noc2C)[C@H](C)CN([C@H](C)CO)C3=O)cc1
  0.174	·	-7.2	4.0
27: COc1ccc(S(=O)(=O)Nc2ccc3c(c2)C(=O)N([C@H](C)CO)C[C@H](C)[C@@H](CN(C)C(=O)Nc2ccccc2)OCCCC[C@@H](C)O3)cc1
  0.0139	-0.9	2.4	10.8
28: O=C(COc1ccc2cc(Br)ccc2c1)Nc1cccc([N+](=O)[O-])c1
  ·	-0.5	-23.8	·
29: COc1ccc(CN(C)C[C@H]2Oc3c(NC(=O)Nc4ccc(F)cc4)cccc3C(=O)N([C@H](C)CO)C[C@H]2C)cc1
  -0.198	0.9	-19.3	·
30: CCN(CC(=O)Nc1ccccc1C(F)(F)F)S(=O)(=O)c1ccc(Cl)cc1
  ·	-0.4	10.6	·
31: C[C@@H]1CN([C@H](C)CO)C(=O)c2cccc(NS(=O)(=O)c3ccc(Cl)cc3)c2O[C@H]1CN(C)S(=O)(=O)c1cn(C)cn1
  0.455	1.4	-6.7	-30.2
32: COc1ccc(CN(C)C[C@@H]2Oc3ccc(NS(=O)(=O)c4cccs4)cc3C(=O)N([C@H](C)CO)C[C@@H]2C)cc1
  -0.088	-0.9	-5.2	18.4
33: COC(=O)c1ccccc1NC(=O)c1ccc(Cl)c(S(=O)(=O)Nc2ccccc2C)c1
  ·	-2.2	-1.2	·
34: COc1ccc(OC(C)C(=O)Nc2cc(C)ccc2OC)cc1 (stereo not drawn)
  ·	-0.9	13.2	·
35: C[C@@H]1CN([C@H](C)CO)C(=O)c2cc(NC(=O)NC3CCCCC3)ccc2O[C@H]1CN(C)C(=O)Nc1ccccc1
  -0.283	·	-5.8	·
36: C[C@@H]1CN([C@H](C)CO)C(=O)c2cc(NS(=O)(=O)c3ccc(Cl)cc3)ccc2O[C@@H]1CN(C)C(=O)Nc1ccccc1
  -0.78	-1.3	-22.1	·
37: COc1ccc(OCC(=O)Nc2ccc3oc(-c4cccc(I)c4)nc3c2)cc1
  ·	-4.1	-22.6	·
38: Cc1cc(C(=O)Nc2cccc3c2O[C@@H](CN(C)Cc2ccc(Oc4ccccc4)cc2)[C@H](C)CN([C@@H](C)CO)C3=O)n(C)n1
  -0.0522	-8.2	53.2	-35.2
39: COC(=O)c1cc(NC(=O)COc2ccc(Br)cc2)cc(C(=O)OC)c1
  ·	-1.9	2.4	·
40: Cc1cc(C(=O)Nc2cccc3c2O[C@@H](CN(C)S(C)(=O)=O)[C@@H](C)CN([C@@H](C)CO)C3=O)n(C)n1
  -0.477	2.8	-10.1	-19.4
41: COc1ccc(OC)c(C(=O)CSc2nnc(-c3cccnc3)n2C)c1
  ·	2.7	-4.0	·
42: C[C@@H]1CCCCO[C@H](CN(C)C(=O)c2ccncc2)[C@@H](C)CN([C@H](C)CO)C(=O)c2cc(NC(=O)C3CCCCC3)ccc2O1
  -0.206	·	-3.9	-4.0
43: COc1ccc(OC)c(NC(=O)CSc2nc(-c3ccccc3)cc(=O)[nH]2)c1
  ·	-0.6	11.6	·
44: C[C@@H]1CN([C@@H](C)CO)C(=O)c2cccc(NC(=O)c3nc4ccccc4s3)c2O[C@H]1CN(C)Cc1ccc(C(F)(F)F)cc1
  -0.445	-2.0	20.1	2.8
45: C[C@H]1CN([C@@H](C)CO)C(=O)c2cccc(NS(=O)(=O)c3cccs3)c2O[C@H]1CN(C)CC1CC1
  -0.605	·	-13.5	-26.5

Continued (2 carried over from the part before).
Results follow in this order: YB-1 expression	PD-1 reversal	MITF inh	Shh pathway inh
44: C[C@@H]1CN([C@@H](C)CO)C(=O)c2cccc(NC(=O)c3nc4ccccc4s3)c2O[C@H]1CN(C)Cc1ccc(C(F)(F)F)cc1
  -0.445	-2.0	20.1	2.8
45: C[C@H]1CN([C@@H](C)CO)C(=O)c2cccc(NS(=O)(=O)c3cccs3)c2O[C@H]1CN(C)CC1CC1
  -0.605	·	-13.5	-26.5
46: C[C@@H]1CN([C@@H](C)CO)C(=O)c2cccc(NC(=O)NC3CCCCC3)c2O[C@@H]1CN(C)S(C)(=O)=O
  0.0612	-0.2	-11.1	4.0
47: COc1ccc(S(=O)(=O)N(C)C[C@@H]2Oc3ccc(N(C)C)cc3CC(=O)N([C@@H](C)CO)C[C@@H]2C)cc1
  -0.355	·	-7.1	10.2
48: CC(=O)C1=C(c2ccccc2)NC(=S)NC1c1cc(Cl)ccc1OCC(=O)O (stereo not drawn)
  ·	1.7	19.7	·
49: O=C(O)CCNc1ncnc2c1oc1ccccc12
  ·	-1.5	31.6	·
50: C[C@@H]1CN([C@@H](C)CO)C(=O)c2cc(NC(=O)c3ccncc3)ccc2O[C@H]1CN(C)C(=O)Nc1ccc(C(F)(F)F)cc1
  -0.00713	0.5	1.3	·
51: CC(N=Cc1c(O)ccc2ccccc12)C12CC3CC(CC(C3)C1)C2 (stereo not drawn)
  -0.295	0.5	16.1	?
52: C[C@H](CO)N1C[C@H](C)[C@@H](CN(C)Cc2ccc(Cl)c(Cl)c2)Oc2ccc(NC(=O)C3CC3)cc2C1=O
  0.215	0.2	5.4	5.3
53: COC(=O)c1c(C)oc2ccc(N(C(=O)c3ccncc3)S(=O)(=O)c3ccc(F)cc3C)cc12
  ·	-4.5	69.8	·
54: O=C(CN1C(=O)c2ccccc2S1(=O)=O)Nc1c(F)cccc1F
  ·	0.3	-10.5	·
55: FC(F)(F)c1nnc(Nc2cccnc2)s1
  0.136	1.3	6.9	-8.3
56: S=C1NCN(C2CCCCC2)CN1
  0.444	0.3	3.9	·
57: O=C(Nc1ccc(Br)cc1)c1ccc(NS(=O)(=O)c2cccc3cccnc23)cc1
  ·	1.0	-7.2	·
58: CC(C)NC(=O)Nc1ccc2c(c1)C(=O)N([C@@H](C)CO)C[C@@H](C)[C@H](CN(C)Cc1ccc(C(=O)O)cc1)O2
  -0.116	·	3.5	-19.8
59: COc1ccc(CN(C)C[C@@H]2Oc3ccc(NC(=O)Nc4ccc(OC)cc4)cc3C(=O)N([C@@H](C)CO)C[C@H]2C)cc1
  0.334	·	3.3	-4.1
60: C[C@@H]1CN([C@H](C)CO)C(=O)c2cc(NC(=O)C3CC3)ccc2O[C@H]1CN(C)C(=O)NC1CCCCC1
  -0.0206	0.4	-1.8	-11.2
61: COc1ccc(C(=O)CCC(=O)Nc2ccc(C(=O)O)cc2)c(OC)c1
  ·	2.1	0.8	·
62: O=C(COc1ccc(S(=O)(=O)N2CCCC2)cc1Cl)Nc1ccccc1
  ·	-1.6	-31.5	·
63: C[C@@H]1CN([C@@H](C)CO)C(=O)c2cc(NC(=O)C3CC3)ccc2O[C@@H]1CN(C)S(=O)(=O)c1ccc(F)cc1
  -0.0804	1.2	-4.0	·
64: COc1ccc(C2=CC(c3ccccc3)c3ccccc3O2)cc1OC (stereo not drawn)
  0.145	1.1	-5.4	·
65: COc1ccc(NC(=O)N(C)C[C@@H]2Oc3ccc(NS(=O)(=O)c4cn(C)cn4)cc3C(=O)N([C@@H](C)CO)C[C@H]2C)cc1
  -0.245	1.9	-7.0	-5.0
66: Cc1noc(C)c1S(=O)(=O)Nc1ccc2c(c1)CC(=O)N([C@@H](C)CO)C[C@H](C)[C@@H](CN(C)S(=O)(=O)c1ccc(F)cc1)O2
  0.233	·	-5.7	-38.3
67: C[C@@H]1CN([C@@H](C)CO)C(=O)c2cccc(NC(=O)c3nc4ccccc4s3)c2O[C@@H]1CN(C)C(=O)Nc1ccc(F)cc1
  0.0696	-4.0	4.1	6.6
68: COC(=O)c1ccccc1NC(=O)c1cccc(NC(=O)COc2ccccc2)c1C
  ·	-1.5	0.6	·
69: C[C@@H]1CN([C@@H](C)CO)C(=O)c2cc(NS(C)(=O)=O)ccc2O[C@H]1CN(C)C(=O)NC1CCCCC1
  -0.294	0.0	-0.6	·
70: Cc1ccc(S(=O)(=O)N(C)C[C@H]2Oc3c(NS(C)(=O)=O)cccc3C(=O)N([C@@H](C)CO)C[C@@H]2C)cc1
  0.604	0.5	-2.9	-43.8
71: Cc1noc(C)c1NC(=O)Nc1cccc2c1O[C@@H](CN(C)Cc1ccc(Oc3ccccc3)cc1)[C@@H](C)CN([C@H](C)CO)C2=O
  1.18	-1.9	9.5	20.4
72: S=c1[nH]ccn1CCc1ccccc1
  -0.293	-0.1	-7.4	2.8
73: COc1ccc(NC(=O)Nc2ccc3c(c2)C(=O)N([C@H](C)CO)C[C@@H](C)[C@H](CN(C)S(=O)(=O)c2ccccc2)O3)cc1
  -0.0478	0.4	-18.7	·

Bioassay records deposited in PubChem BioAssay by Broad Institute.
